Bioassay records: PubChem BioAssay, National Center for Advancing Translational Sciences (NCATS)
HTT promoter inh = inhibitors of huntingtin promoter activity; HEK293 HTT promoter firefly luciferase reporter (activity 0% = vehicle and -100% = no light), 24 h; actives 0.93% (n = 48,000); AID 1508623; Potency, µM (titrated, usually from 57.5 µM), for the others: at the highest dose activity change, negative = inhibition, usual class: inhibitors; active = well fitted inhibition curve with a large enough effect; inconclusive = small, poorly fitted or top-dose-only effect; inactive = no such curve, though single readings can be large or run the other way; note: nearly all actives have a fitted effect of over 50% in size
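HEK293 Fluc reporter, 2,500 cells/well, 24 h pre-culture; cpds up to 57.5 uM final, 24 h 37 degrees C; Dual-Glo, 10 min RT; normalized vehicle = 0%, zero RLU = -100%.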
PMP22 txn prim = PMP22 gene transcription modulation. Potency, µM (series often up to 57.5 µM), for inactives: at the top dose activity change, negative = inhibition, most hits filed as inhibitors. S16 Pmp22-F2sN Schwann cells (luciferase reporters placed in the Pmp22 gene), FLuc/NLuc coincidence luminescence, 24 h. AID 1508649. actives 2% (n = 43,000); active = clear falling dose curves in both reporters; inconclusive = both reporters move, but less clearly or upward; inactive = either reporter flat; the % is the NLuc reporter signal; note: % is set by controls: 0 for no effect and ±100 for the full control effect; some results filed as inactive show a strong effect at the top dose
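Luminescent read-out of sequential FLuc and NLuc signals from a reporter embedded in the Pmp22 3' UTR of S16 Schwann cells, taken after 24 h compound exposure at 37C; compounds reducing both signals score as inhibitors of expression.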
An asterisk follows results filed as active; ? = inconclusive; / = no result given; & = joins results of further samples; [ ] = another dose, or the depositor's remark. Potency is the fitted concentration of half-maximal effect.

SMILES	HTT promoter inh	PMP22 txn prim
COc1ccc(N2CCN(C(=O)c3cn(C)c4ccc(S(=O)(=O)N(C)C5CCCCC5)cc4c3=O)CC2)cc1	-6%	30%
Cc1cc(O)c(C(c2cccc(F)c2)N2CCN(c3ccccc3)CC2)c(=O)n1Cc1ccco1 (stereo not given)	-6%	?
COc1ccc(CCNC(=O)c2ccc3c(c2)c(C)c(C)n3Cc2ccc(F)cc2)c(OC)c1OC	?	?
Cc1ccc(CSc2nc3ccccc3c3nc(CCn4c(C)nc5ccccc54)nn23)cc1	5%	-34%
CC(C)(C)c1ccc(S(=O)(=O)NCc2ccc3c(c2)CCN3C(=O)c2ccccc2)cc1	?	?
CCOC(=O)C1=C(C(F)(F)F)Nc2ncnn2C1c1cccc(OC)c1OC (stereo not given)	-16%[11.5 µM]	24%
COc1ccc(-c2cc(C(F)(F)F)n3nc(C(=O)NCC45CC6CC(CC(C6)C4)C5)cc3n2)cc1OC	?	18%
COc1ccc(CC(=O)N2CCc3cc(OC)c(OC)cc3C2COc2ccc(F)cc2)cc1OC (stereo not given)	-17%	-10%
C=CCc1cccc(C=NNC(=O)CN2CCN(Cc3ccccc3)CC2)c1O	?	/
CCCc1nc(C)c2c(=O)[nH]c(-c3cc(S(=O)(=O)N4CCN(CC)CC4)ccc3OCC)nn12	?	/
CCOC(=O)C1=C(C)NC(=O)NC1c1cn(-c2ccccc2)nc1-c1ccc(OC(C)C)cc1 (stereo not given)	-4%	?
CCOC(=O)c1cccc(NC(=O)C(Cc2ccccc2)NS(=O)(=O)c2cccc3nsnc23)c1 (stereo not given)	?	-14%
CCOC(=O)c1c(C)oc2ccc(N(C(=O)Oc3ccccc3)S(=O)(=O)c3ccccc3)cc12	1%	?
Cc1ccc(NC(=O)NCc2cccn2Cc2ccccc2)c(C)c1	8%	-2%
CCOc1cccc2sc(NC(=O)c3ccc(S(=O)(=O)N4CCCc5ccccc54)cc3)nc12	-23%	-17%
Cc1ccc(S(=O)(=O)N2CCC(c3ccncc3)CC2)c(C)c1	16µM*	?
O=C(Nc1cccc(C(F)(F)F)c1)c1cc(-c2ccc(Cl)cc2)on1	-6%	-23%
COc1cc(CNC(=O)c2sc3ncccc3c2-n2cccc2)cc(OC)c1OC	?	13%
Cc1ccc(NC(=O)Cn2nc(-c3ccccc3)nc(Cc3ccccc3)c2=O)cc1	-7%	-11%
CCOC(=O)c1cccc(NC(=O)N2CC=C(c3c[nH]c4ccccc34)CC2)c1	?	?
CC(=O)Oc1cc(C(C)C)c(OCCN(C)C)cc1C	12%	/
O=C1CC(c2nc(-c3ccccc3)no2)CN1c1ccccc1 (stereo not given)	0%	?
COc1ccc2oc(-c3ccc(C)c(NC(=O)c4cccnc4)c3)nc2c1	-8%	?
O=C(Cn1c(-c2cccs2)cc2ccccc21)NCCCN1CCN(c2cccc(Cl)c2)CC1	?	?
CN1CCN(c2ccc(-c3nc(-c4ccccc4)no3)cc2[N+](=O)[O-])CC1	?	?

Overlap with the part before: 4 entries, then new ones.
SMILES	HTT promoter inh	PMP22 txn prim
O=C1CC(c2nc(-c3ccccc3)no2)CN1c1ccccc1 (stereo not given)	0%	?
COc1ccc2oc(-c3ccc(C)c(NC(=O)c4cccnc4)c3)nc2c1	-8%	?
O=C(Cn1c(-c2cccs2)cc2ccccc21)NCCCN1CCN(c2cccc(Cl)c2)CC1	?	?
CN1CCN(c2ccc(-c3nc(-c4ccccc4)no3)cc2[N+](=O)[O-])CC1	?	?
CCCCC(O)/C=C(C)/C=C/C=C/C(=O)N1CCCC1=O (stereo not given)	-1%	/
COC(=O)c1ccccc1NC(=O)c1cc(-c2ccc(Cl)cc2)on1	0%	11%
Cc1ccc(-n2c(=O)[nH]c3sc4c(c3c2=O)CCCC4)cc1	-12%	?
C[C@]12CC[C@@H]3c4ccc(O)cc4CC[C@H]3[C@@H]1CCC2=O	0%	/
Cc1nnc(N2CCC(C(=O)NCc3ccc(N(C)C)cc3)CC2)c2nn(-c3ccccc3)c(C)c12	-7%	-4%
COC(=O)c1c(NC(=O)CCCOc2ccccc2)sc2c1CCC(C)C2 (stereo not given)	2%	7%
COc1cccc(C(=O)Nc2nc3nc(C)c(Cc4ccccc4)c(=O)n3[nH]2)c1	-1%	?
COC(=O)c1cc(S(=O)(=O)N2CCN(c3cc(Cl)ccc3C)CC2)c[nH]1	-5%	-5%
CCc1nn(CC(=O)N2CCN(c3cccc(C)c3)C(C)C2)c(=O)c2cc3sccc3n12 (stereo not given)	-9%	-39%
CCn1cc2nc(SCc3cccc(C(F)(F)F)c3)n(CCc3ccccc3)c(=O)c2n1	-6%	?
O=C(NCC(c1cccnc1)N1CCN(c2ccccc2F)CC1)C(=O)Nc1ccc(F)cc1F (stereo not given)	-28%	-116%
CCOC(=O)c1[nH]c2c(c1Cc1ccccc1)C(=O)CC(c1ccccc1)C2 (stereo not given)	?	-22%
Cc1cc(Br)ccc1NC(=O)C1CCN(S(=O)(=O)c2cccc3nsnc23)CC1	-17%	-25%
COc1cc(Nc2nc(SCc3ccccc3Cl)nc3ccccc23)cc(OC)c1	?	?
CCOc1ccc(CCNC(=O)CCCn2nc(C)c3sc4ccccc4c3c2=O)cc1	5%	-15%
Cc1ccc(C)c(Cn2c(=O)n(Cc3ccco3)c(=O)c3oc4ccccc4c32)c1	-16%	-22%
Cc1cccc(CNC(=O)C2CCN(c3nc4ccc(Cl)cc4[nH]3)CC2)c1	-1%	-8%
CC(=O)C1=C(c2ccc(F)cc2)N(C(C)=O)n2c(nnc2C2CCCCC2)S1	-12%	?
COc1cccc(Nc2c(C(N)=O)cnc3c(C)cc(S(=O)(=O)c4cccc(C(=O)N(C)C)c4)cc23)c1	-15%[25.2 µM]	/
COc1ccc(-c2nn(-c3cccc(F)c3)c3c2cnc2cc(OC)c(OC)cc23)cc1	-22%	?
COc1cc(NC(=O)CSc2ncc3c(n2)-c2ccc(Cl)cc2N(Cc2ccccc2)S3(=O)=O)cc(OC)c1	-14%	-22%
Cc1nc(-n2nc(C)c(Cc3ccc(Cl)cc3)c2C)sc1C(=O)N1CCCCC1C (stereo not given)	-4%	-51%
COC(=O)c1ccccc1NC(=O)c1cc2nc(-c3ccc(OC)cc3)cc(C(F)(F)F)n2n1	0%	-11%
C[C@]12CCC3c4ccc(O)cc4CCC3C1CCC2=O (stereo not given in full)	-16%	/
COC(=O)c1ccc(C2C=C(c3ccc(Cl)cc3)Nc3nc4ccccc4n32)cc1 (stereo not given)	23%	?
Other structures:
SMILES	HTT promoter inh	PMP22 txn prim
NC(=O)OCC(COC(N)=O)c1ccccc1	4%&-5%	/
COc1ccc(C(=O)Nc2ccc(-c3cc(C(F)(F)F)nn3-c3ccccc3)cc2)cc1OC	?	?
O=C(CNS(=O)(=O)c1cccs1)N1CCN(c2cccc(C(F)(F)F)c2)CC1	?	?
Cc1ccc(C(=O)Nc2nc3nc(C)cc(=O)n3[nH]2)cc1	-3%	21%
CCc1ccc(-n2nnc(-c3nc(-c4ccc(C)cc4)no3)c2N)cc1	2%	-3%
Cc1c(Cl)cccc1NC(=O)CSc1nc(=O)n(Cc2ccccn2)c2c1CCC2	-12%	0%
COc1ccc2nc(N3CCN(C(=O)C4CC4)CC3)sc2c1	35%[activator]	?
O=C(NCc1ccc2c(c1)CCN2C(=O)c1ccccc1)c1ccc(Br)o1	-15%	7%
CCc1ccc(CNC(=O)c2c3c(nc4ccccc24)C(=O)N(C2CCCCC2)C3)cc1	?	?
O=C(Cn1cc(SCc2ccc(C(F)(F)F)cc2)c2ccccc21)N1CCOCC1	5%	?
Cc1cc(C)c2c(=O)cc(C(=O)Nc3ccc(C)c(Cl)c3)oc2c1	-4%	2%
CCCCC(=O)Nc1cc(-c2cn3cccnc3n2)ccc1C	-2%	-3%
CCc1ccc(CN(C(=O)c2cc(=O)c3ccc(C)cc3o2)C2CCS(=O)(=O)C2)cc1 (stereo not given)	-20%	-16%
O=C(CC1N=C2c3ccccc3N=C(SCc3ccc(F)cc3)N2C1=O)NCc1ccc2c(c1)OCO2 (stereo not given)	0%	-33%
CC(C)c1ccc(NC(=O)N2c3ccccc3Sc3ccccc32)cc1	?	?
CCOC(=O)C(CC)Sc1nnc2[nH]c(=O)cc(C)n12 (stereo not given)	-12%	0%
Cc1ccc(-n2nc3c(N4CCC(C(=O)NCCC(C)C)CC4)nnc(C)c3c2C)cc1	-25%	6.2µM*
Cc1cc(=O)oc2c3c(ccc12)OCN(Cc1ccc(Cl)cc1)C3	-11%	-8%
CC1=C(c2ccc(C)cc2)S(=O)(=O)NC1=NCCCN1CCN(c2cc(C)ccc2C)CC1	?	?
CN1CC(=O)NC1=N	14%	/
CCCN1CCc2nc(N3CCN(c4ncccn4)CC3)ncc2C1	3%	-11%
COC(=O)CSc1nc(-c2ccc(F)cc2)cc(C(F)(F)F)n1	-23%	-29%
Cc1cc(C)n(CC(=O)Nc2ccc(F)c(F)c2)c(=O)c1C#N	1%	5%
Nc1ccc(S(=O)(=O)Nc2cnc3ccccc3n2)cc1	-5%	/
COc1ccccc1C(=O)Nc1onc2c1CCCC2	-25%	?
(continued)
SMILES	HTT promoter inh	PMP22 txn prim
CN(C)CCN(Cc1cccs1)c1ccccn1	9%	/
CC(=O)c1ccc(NC(=O)C(Cc2ccccc2)NS(=O)(=O)c2ccc3c(c2)CCC(=O)N3)cc1 (stereo not given)	5%	-17%
Cc1ccc(S(=O)(=O)c2nnn3c2nc(N2CCN(c4cccc(C)c4C)CC2)c2ccccc23)cc1C	3%	-13%
Cc1ccc(C)c(N2CCN(c3nc4c(S(=O)(=O)c5ccccc5)nnn4c4ccc(Cl)cc34)CC2)c1	-2%	-1%
CC(C)NS(=O)(=O)c1ccc(OCC(=O)N2CCN(c3cccc(Cl)c3)CC2)cc1	?	?
Cc1ccc(C)c(CN2C(=O)c3ccccc3S(=O)c3ccc(C(=O)N(C)Cc4ccccc4)cc32)c1 (stereo not given)	?	?
COc1ccc(-c2ccc(NS(=O)(=O)c3ccc(NC(C)=O)cc3)cc2)nn1	6%	-9%
COc1ccc(OC)c(CCNC(=O)c2cc3cccc4c3n2CC(C)S4)c1 (stereo not given)	-27%	-29%

Filtered by structure, the entries above containing fluorine
SMILES	HTT promoter inh	PMP22 txn prim
Cc1cc(O)c(C(c2cccc(F)c2)N2CCN(c3ccccc3)CC2)c(=O)n1Cc1ccco1 (stereo not given)	-6%	?
COc1ccc(CCNC(=O)c2ccc3c(c2)c(C)c(C)n3Cc2ccc(F)cc2)c(OC)c1OC	?	?
CCOC(=O)C1=C(C(F)(F)F)Nc2ncnn2C1c1cccc(OC)c1OC (stereo not given)	-16%[11.5 µM]	24%
COc1ccc(-c2cc(C(F)(F)F)n3nc(C(=O)NCC45CC6CC(CC(C6)C4)C5)cc3n2)cc1OC	?	18%
COc1ccc(CC(=O)N2CCc3cc(OC)c(OC)cc3C2COc2ccc(F)cc2)cc1OC (stereo not given)	-17%	-10%
O=C(Nc1cccc(C(F)(F)F)c1)c1cc(-c2ccc(Cl)cc2)on1	-6%	-23%
CCn1cc2nc(SCc3cccc(C(F)(F)F)c3)n(CCc3ccccc3)c(=O)c2n1	-6%	?
O=C(NCC(c1cccnc1)N1CCN(c2ccccc2F)CC1)C(=O)Nc1ccc(F)cc1F (stereo not given)	-28%	-116%
CC(=O)C1=C(c2ccc(F)cc2)N(C(C)=O)n2c(nnc2C2CCCCC2)S1	-12%	?
COc1ccc(-c2nn(-c3cccc(F)c3)c3c2cnc2cc(OC)c(OC)cc23)cc1	-22%	?
COC(=O)c1ccccc1NC(=O)c1cc2nc(-c3ccc(OC)cc3)cc(C(F)(F)F)n2n1	0%	-11%
COc1ccc(C(=O)Nc2ccc(-c3cc(C(F)(F)F)nn3-c3ccccc3)cc2)cc1OC	?	?
O=C(CNS(=O)(=O)c1cccs1)N1CCN(c2cccc(C(F)(F)F)c2)CC1	?	?
O=C(Cn1cc(SCc2ccc(C(F)(F)F)cc2)c2ccccc21)N1CCOCC1	5%	?
O=C(CC1N=C2c3ccccc3N=C(SCc3ccc(F)cc3)N2C1=O)NCc1ccc2c(c1)OCO2 (stereo not given)	0%	-33%
COC(=O)CSc1nc(-c2ccc(F)cc2)cc(C(F)(F)F)n1	-23%	-29%
Cc1cc(C)n(CC(=O)Nc2ccc(F)c(F)c2)c(=O)c1C#N	1%	5%
